Compound activity from PubChem BioAssay.
eIF4H inh: human eIF4H binding inhibitors, primary screen, translation initiation inhibitor project, biochemical, uHTS, fluorescence polarization; eIF4H fluorescence polarization binding assay; 290,000 tested, 0.94% active; AID 2012, 2009; inhibition, % at 35 µM;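 active = 50% or more with normal probe brightness, or confirmed in later tests; about a fifth of its hits are not listed in these tables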;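 also: calls also rest on retests at 20 µM and on dose response follow-up; 0% = protein and probe with vehicle and 100% = probe without protein; strong numbers were not always called active; many hits fall short of the cut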
UUG fidelity: modulators of yeast start codon fidelity, primary screen, whole organism, S. cerevisiae, single point, plate reader; activity score, % at 18.7 µM; 350,000 tested, 0.13% active; AID 602363, 2012; S. cerevisiae UUG-firefly luciferase reporter, luminescence/redox ratio;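 active = replicate mean at a twofold rise or more, about +100% in these data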;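 also: firefly luciferase made from a UUG start codon reports start codon fidelity; reporter light over untreated wells divided by growth signal over untreated wells; some hits fall short of that in this replicate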
Rce1 inh: yeast Rce1p protease inhibitors, primary screen, biochemical, fluorescence, cell-free homogeneous | yeast membranes, quenched prenylated peptide cleavage fluorescence | calls only | 290,000 tested, 0.27% active;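 active = fall in fluorescence gain of 50% or more versus controls, with final raw signal at or below 3038400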;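 also: plate controls were neutral control wells for no effect and wells lacking membranes for full effect; tested at 10 µM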
Target sequence (Q03530 whole entry, looked up): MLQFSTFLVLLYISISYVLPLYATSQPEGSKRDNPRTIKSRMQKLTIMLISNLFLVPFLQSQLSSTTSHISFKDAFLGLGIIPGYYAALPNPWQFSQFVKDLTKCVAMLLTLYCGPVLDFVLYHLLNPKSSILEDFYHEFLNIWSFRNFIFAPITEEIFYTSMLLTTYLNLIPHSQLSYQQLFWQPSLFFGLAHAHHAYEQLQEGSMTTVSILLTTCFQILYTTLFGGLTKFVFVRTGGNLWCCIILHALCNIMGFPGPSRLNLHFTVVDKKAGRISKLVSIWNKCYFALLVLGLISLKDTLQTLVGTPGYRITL
MT1-MMP act inh: blockers of MT1-MMP proenzyme processing, primary screen, HT1080 RFP-PRO-GFP cells, GFP/RFP fluorescence; Matrix metalloproteinase-14 (Homo sapiens), P50281; GFP/RFP ratio fluorescence, overnight; percent of plate control window, DMSO zero; GFP/RFP ratio change, % at 20 µM; 360,000 tested, 0.061% active; AID 651647, 2012;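 active = GFP/RFP ratio change of at least 30% with cell ATP level not reduced by more than half and red fluorescence within 50% of control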; also: strong numbers were not always called active
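Test system: HT1080 cells expressing an RFP-PRO-GFP fluorescent reporter construct / Compound dosing: single-point 20 µM compound, 1% DMSO / Schedule: cells overnight before dosing, compound overnight, 37 °C, 5% CO2 / Evaluation: GFP/RFP fluorescence ratio / Control set: DMSO and RFP-L50D-GFP cell wells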
CSC inhib: cancer stem cell viability inhibitors, primary screen, luminescence. inhibition, % at 7.5 µM. 300,000 tested, 1.1% active. cancer stem cell-like cells viability;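 active = mean at 75% or more and at least half the replicates too; tested in HMLE shEcad cells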;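 also: 0% = median of negative and 100% = median of positive control wells; the first replicate is given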
PABP FP inh: PABP poly(A) RNA binding inhibitors, primary screen, biochemical, fluorescence polarization, uHTS; Polyadenylate-binding protein 1 (Homo sapiens), P11940; inhibition, % at 35 µM; 290,000 tested, 1% active; AID 2014, 2009;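 active = 50% or more with normal probe brightness, or confirmed in later tests; about a fifth of its hits are not listed in these tables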;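 also: calls also rest on retests at 20 µM and on dose response follow-up; controls were probe without protein and protein plus probe with vehicle; some compounds called inactive have numbers as strong as hits; many hits fall short of the cut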
HIV Env fusion: inhibitors of HIV-1 Env-driven cell-cell fusion, primary screen, HeLa-JRFL effector, CEM21 target cells, luciferase. inhibition, % at 12.3 µM. 360,000 tested, 1.1% active. AID 651610, 2012;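 active = mean replicate inhibition score of at least 50 and every replicate individually at or above 50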;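 also: 0% = plate neutral controls and 100% = maraviroc near 300 nM; one replicate is shown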
eIF4H inh retest: recorded beside eIF4H inh, whose call it bears; inhibition, %; compound at 20 µM; confirmation average;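 mean of two retest wells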
PABP FP inh retest: second read-out of PABP FP inh, no call of its own (marks repeat the call); inhibition, %; compound at 20 µM; confirmation repeats;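 mean of two retest wells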
MT1-MMP act inh RFP: also measured in MT1-MMP act inh; calls as there; RFP signal change, %; measured here: RFP expression control read;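 0 = vehicle wells; hits needed this value within 50% of zero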
Numbers without * were called inactive; i = inactive; / = not tested or not shown.

Preview, two compounds:
SMILES	eIF4H inh	UUG fidelity	Rce1 inh	MT1-MMP act inh	MT1-MMP act inh RFP	CSC inhib	PABP FP inh	HIV Env fusion	others
CCN(CC)S(=O)(=O)c1ccc2c(c1)CC(C(=O)N1CCCC1)N2C(C)=O (stereo unspecified)	69	-7	i	0	2	17	-10	-78	eIF4H inh retest=12;PABP FP inh retest=0
C[C@H]1C(c2ccc(F)cc2)=NN(c2ccccc2)[C@@H]1CO	/	0	/	3	2	/	/	21

The whole of this part, from the start:
SMILES	eIF4H inh	UUG fidelity	Rce1 inh	MT1-MMP act inh	MT1-MMP act inh RFP	CSC inhib	PABP FP inh	HIV Env fusion	others
CCN(CC)S(=O)(=O)c1ccc2c(c1)CC(C(=O)N1CCCC1)N2C(C)=O (stereo unspecified)	69	-7	i	0	2	17	-10	-78	eIF4H inh retest=12;PABP FP inh retest=0
C[C@H]1C(c2ccc(F)cc2)=NN(c2ccccc2)[C@@H]1CO	/	0	/	3	2	/	/	21
CCC(=O)Nc1nnc(C)s1	3	-13	i	2	5	/	13	/
S=C(Nc1ccc2nsnc2c1)N1CCCCC1	8	/	/	-4	1	-2	-2	/
O=C(CN1C(=O)CCS(=O)(=O)c2ccccc21)NCCc1ccccc1	-11	-19	i	1	3	-2	2	-12
COc1cc(C(=O)NCCN2C(=O)S/C(=C\c3ccc(F)cc3)C2=O)ccc1OCC(=O)N1CCOCC1	1	/	i	/	/	-18	-1	/
CC(OC(=O)CCCN=C1NS(=O)(=O)c2ccccc21)C(=O)NC1CCCCC1C (stereo unspecified)	-3	-6	i	0	4	-14	10	2
COC(=O)c1ccc(CC2(C)C(=O)Nc3ccc(OC(F)(F)F)cc32)o1 (stereo unspecified)	/	-6	/	1	-3	/	/	29
COc1ccc(NC(=O)C(NS(=O)(=O)c2ccc3c(c2)CCCN3C(C)=O)C(C)C)c(OC)c1 (stereo unspecified)	-6	16	i	0	2	7	-2	-55
CCCCn1c(N)c(N(CC(C)C)C(=O)c2cccc(S(=O)(=O)N3CCN(C)CC3)c2)c(=O)[nH]c1=O	/	/	i	0	-3	-1	/	-12
CC(/C=C/C(=O)c1ccc(C)cc1)=C\c1ccccc1	-3	/	i	2	-2	16	-2	/
Cc1[nH]n2c(=O)c3c(nc2c1-c1cccc2ccccc12)CCC3	-5	-10	i	6	4	23	0	3
CC(C)C1Nc2ccc(S(=O)(=O)N3CCOCC3)cc2NC1=O (stereo unspecified)	-9	6	/	1	2	-2	-12	-3
CC(=O)Oc1cc(C)cc2oc(=O)cc(-c3ccccc3)c12	-4	-11	i	2	-2	33	3	-14
O=C1c2ccccc2NC2(CCCC2)N1N=C1CCCC1	-8	-16	i	2	0	-15	4	-12
Cn1c(COc2ccc(Cl)cc2)nnc1SCC(=O)NC1CCCCC1	/	-13	i	4	2	-9	/	20
Cc1ccc(SCCSc2ncccn2)cc1	2	-26	i	-2	0	-17	8	-81
Cc1ccc(Cl)c(OCC(=O)N(C)CC(=O)Nc2ccc(N3CCOCC3)cc2)c1	/	10	i	-1	-3	/	/	11
N#CC1(Nc2ccc(Br)cc2)CCCC1	/	-16	/	7	-1	/	/	-2
Cc1ccsc1/C=N/N1CCN(C2c3ccccc3-c3ccccc32)CC1	1	3	i	-7	-9	43	4	/
Cc1ccc(CNC(=O)C2COc3ccccc3O2)cc1 (stereo unspecified)	-7	/	i	3	6	-10	2	-7
Nc1nc(SCC(=O)c2cccs2)n[nH]1	-1	/	/	-4	-2	-13	0	15
COc1cc(OC)c(NC(=S)Nc2cc(Cl)cc(Cl)c2)cc1Cl	1	/	i	2	-1	38	-5	/
COCCN=c1scc(-c2cccs2)n1/N=C/c1ccc(O)c(O)c1O	47	/	i	-9	-12	57	-6	23
C=CCn1c(SCC(=O)NC2CCCC2)nnc1-c1ccccn1	-4	-9	i	1	1	-13	-2	-7
CC(C)(C)CN1CCNC(=O)C1CC(=O)N1CCN(c2ccccc2)CC1 (stereo unspecified)	12	-3	i	2	7	/	-3	2
O=C(O)c1ccc(NCc2nc3ccccc3n2CCOc2ccccc2Cl)cc1	4	-20	i	2	-1	-23	2	8
Nc1nc(N2CCCCC2)c(C=O)c(N2CCCCC2)n1	7	/	i	0	1	2	4	-2
CCOC(=O)C1CCN(S(=O)(=O)c2cc(Br)cc3c2N(C(C)=O)C(C)C3)CC1 (stereo unspecified)	-12	-6	i	0	-3	-4	-11	-277
Cn1c(O)c(N=NC(=O)c2ccco2)c2ccccc21	4	/	i	3	-3	-11	-10	-62

A draw from above in order of heavy-atom count, rising:
SMILES	eIF4H inh	UUG fidelity	Rce1 inh	MT1-MMP act inh	MT1-MMP act inh RFP	CSC inhib	PABP FP inh	HIV Env fusion	others
CCC(=O)Nc1nnc(C)s1	3	-13	i	2	5	/	13	/
Nc1nc(SCC(=O)c2cccs2)n[nH]1	-1	/	/	-4	-2	-13	0	15
Cc1ccc(SCCSc2ncccn2)cc1	2	-26	i	-2	0	-17	8	-81
S=C(Nc1ccc2nsnc2c1)N1CCCCC1	8	/	/	-4	1	-2	-2	/
CC(/C=C/C(=O)c1ccc(C)cc1)=C\c1ccccc1	-3	/	i	2	-2	16	-2	/
Cc1ccc(CNC(=O)C2COc3ccccc3O2)cc1 (stereo unspecified)	-7	/	i	3	6	-10	2	-7
CC(=O)Oc1cc(C)cc2oc(=O)cc(-c3ccccc3)c12	-4	-11	i	2	-2	33	3	-14
COc1cc(OC)c(NC(=S)Nc2cc(Cl)cc(Cl)c2)cc1Cl	1	/	i	2	-1	38	-5	/
C=CCn1c(SCC(=O)NC2CCCC2)nnc1-c1ccccn1	-4	-9	i	1	1	-13	-2	-7
COC(=O)c1ccc(CC2(C)C(=O)Nc3ccc(OC(F)(F)F)cc32)o1 (stereo unspecified)	/	-6	/	1	-3	/	/	29
Cc1ccsc1/C=N/N1CCN(C2c3ccccc3-c3ccccc32)CC1	1	3	i	-7	-9	43	4	/
CCOC(=O)C1CCN(S(=O)(=O)c2cc(Br)cc3c2N(C(C)=O)C(C)C3)CC1 (stereo unspecified)	-12	-6	i	0	-3	-4	-11	-277
Cc1ccc(Cl)c(OCC(=O)N(C)CC(=O)Nc2ccc(N3CCOCC3)cc2)c1	/	10	i	-1	-3	/	/	11
COc1ccc(NC(=O)C(NS(=O)(=O)c2ccc3c(c2)CCCN3C(C)=O)C(C)C)c(OC)c1 (stereo unspecified)	-6	16	i	0	2	7	-2	-55
CCCCn1c(N)c(N(CC(C)C)C(=O)c2cccc(S(=O)(=O)N3CCN(C)CC3)c2)c(=O)[nH]c1=O	/	/	i	0	-3	-1	/	-12
COc1cc(C(=O)NCCN2C(=O)S/C(=C\c3ccc(F)cc3)C2=O)ccc1OCC(=O)N1CCOCC1	1	/	i	/	/	-18	-1	/

No enrichment for hits; about 2.9% have a hit in one of these screens.
